# GLA inh pH 4.5 – qHTS Assay for Inhibitors of Human alpha-Galactosidase at pH 4.5 | Alpha-galactosidase A (Homo sapiens), P06280 | purified enzyme, 4-MU-alpha-Gal fluorescence, pH 4.5 | activity change, negative = inhibition, % at 105 µM | 230,000 tested, under 10 active | AID 1467, 2008; inconclusive = small, poorly fitted or top-dose-only inhibition, or a rising curve; inactive = flat fitted curve, though single readings scatter; no compound was filed as active;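 further: 0% = full activity with enzyme and -100% = basal without enzyme; dose as in the result columns while the protocol names 77 µM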
# Rango release inh – qHTS Assay for Inhibitors of RanGTP induced Rango (Ran-regulated importin-beta cargo) - Importin beta complex dissociation; Snurportin-1 (Homo sapiens) + GTP-binding nuclear protein Ran (Homo sapiens) + Importin …; Biochemical FRET Rango-importin beta, RanGTP-induced dissociation; Potency, µM (top dose mostly 46.1 µM), without a hit: at the top dose activity change, negative = inhibition; hit rate 0.071% among 340,000; AID 540253, 2011; active means falling FRET ratio curve, often poorly fitted, with flat reads before Ran was added; inconclusive means other falling curves, or compound fluorescence or quenching; inactive means flat or rising ratio curve;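 further: potency means the concentration at half of the fitted maximal effect; % of control where 0% means no effect; nearly all actives have a fitted effect of over 45% in size; -100% = wells without RanGTP and RCC1; the record marks most hits as doubtful in a second field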
#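 Quantitative HTS using a FRET biosensor: 0.1 uM Rango, 0.25 uM importin beta, 0.6 uM Ran, 2 mM GTP, 0.2 uM RCC1 final, PBS with DTT, Tween-20 and BSA. Post-read taken 45 min after Ran addition.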
# Rango complex inh – qHTS Assay for Inhibitors of Rango (Ran-regulated importin-beta cargo) - Importin beta complex formation. Importin subunit beta-1 (Homo sapiens), Q14974. Rango CFP/YFP FRET sensor + importin beta, 45 min. Potency, µM (series often up to 92.2 µM), for the others: top-dose inhibition of complex formation. hit rate 0.031% among 340,000; active = rising FRET ratio curve, often small or poorly fitted; inconclusive = mostly compound fluorescence or quenching in the first reads; inactive = flat curves in all reads;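 further: potency means the concentration at half of the fitted maximal effect; 0% = DMSO wells and 100% = buffer wells lacking importin beta; nearly all actives have a fitted effect of over 15% in size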
# Target sequence (Q14974 whole entry, looked up): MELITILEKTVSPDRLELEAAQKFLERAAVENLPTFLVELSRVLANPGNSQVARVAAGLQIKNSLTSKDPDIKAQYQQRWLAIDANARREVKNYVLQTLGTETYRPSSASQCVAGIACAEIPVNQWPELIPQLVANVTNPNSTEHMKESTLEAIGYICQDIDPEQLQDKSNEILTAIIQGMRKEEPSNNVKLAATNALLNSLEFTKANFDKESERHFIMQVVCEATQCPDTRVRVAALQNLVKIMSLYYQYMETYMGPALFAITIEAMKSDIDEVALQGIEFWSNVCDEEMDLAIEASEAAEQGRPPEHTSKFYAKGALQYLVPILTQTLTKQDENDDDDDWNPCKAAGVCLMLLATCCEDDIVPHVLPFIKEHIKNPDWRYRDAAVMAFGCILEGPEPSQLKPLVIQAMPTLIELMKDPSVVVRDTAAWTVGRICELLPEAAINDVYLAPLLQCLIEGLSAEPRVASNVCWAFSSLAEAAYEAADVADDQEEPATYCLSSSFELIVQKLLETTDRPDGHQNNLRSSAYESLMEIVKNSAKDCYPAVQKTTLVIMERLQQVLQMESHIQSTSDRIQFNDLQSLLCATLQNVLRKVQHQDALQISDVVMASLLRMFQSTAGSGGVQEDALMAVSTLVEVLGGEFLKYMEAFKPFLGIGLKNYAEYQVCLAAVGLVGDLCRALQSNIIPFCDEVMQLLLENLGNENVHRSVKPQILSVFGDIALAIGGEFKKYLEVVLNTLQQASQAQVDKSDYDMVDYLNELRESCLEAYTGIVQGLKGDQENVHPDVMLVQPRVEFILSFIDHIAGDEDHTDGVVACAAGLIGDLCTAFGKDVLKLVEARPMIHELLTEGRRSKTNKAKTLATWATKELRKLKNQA
#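 FRET biosensor (snurportin 1 IBB flanked by EYFP and cerulean), 50 nM, with compound 5 min, then 0.125 microM importin beta in PBS, 1 mM DTT, 0.02% Tween-20, 0.1% BSA. CFP/YFP ratio read after 45 min at room temperature; pre-read flags interference.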
# miR-21 reporter – qHTS Assay for Modulators of miRNAs and/orActivators of miR-21. Potency, µM (doses to about 38.3 µM), for the others: at the highest dose reporter change, positive = more light. HeLa miR-21 FLuc reporter, luciferase, 48 h. 340,000 tested, under 10 active; active = well fitted rising curve with a large enough effect; inconclusive = small, poorly fitted or top-dose-only effect; inactive = no such curve, though single readings can be large or run the other way;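 further: % of control where 0% means no effect; miR-21 action dims this reporter so a rising signal means less miR-21 action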
#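 HeLa cells endogenously expressing miR-21, stably carrying CMV-driven firefly luciferase with a downstream miR-21 binding site, 2000 cells/well. Titrations up to approximately 40 uM, 48 hours; luciferase luminescence read.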
# Numbers without * were called inactive; ? = inconclusive; . = not tested or not shown; & = joins results of further samples. Some of the compounds tested, so the mix of outcomes need not match the whole.
SMILES,GLA inh pH 4.5,Rango release inh,Rango complex inh,miR-21 reporter
Clc1ccc(N2CCN(Cc3ccccc3Cl)CC2)cc1,-9,?,?,-5%
COc1ccc(F)cc1C(=O)C1CCCN(Cc2ccc(O)cc2)C1 (stereo not drawn),.,7%,1.6%,0%
Cc1cc(C(=O)NP(=O)(N2CCOCC2)N2CCOCC2)c(C)n1C1CC1,2,0%,1.9%,-6%
Nc1ccc(CCN2CCN(c3cccc(C(F)(F)F)c3)CC2)cc1,-2,2%,-3.0%,.
Cc1nn(Cc2ccccc2Cl)c(Cl)c1C(=O)OC(C(=O)NC(N)=O)C(C)C (stereo not drawn),-1,3%,1.0%,-1%
Cc1cc(C=C2C(=O)N(C)C(=S)N(C)C2=O)c(C)n1C1CCCC1,1,-18%,?,0%
Cc1ccc2c(Cl)cc(Cl)c(O)c2n1,-3,-3%,?,.
CCCOc1ccccc1NP(=O)(Oc1ccccc1)Oc1ccccc1,.,36%,-2.3%,-4%
COc1ccc(CNCCc2ccccc2F)c(OC)c1C,.,-4%,2.9%,5%
COC(=O)C(C)NC(=S)N1CC2C[C@@H](C1)Cn1c2cccc1=O (stereo partly drawn),.,8%,-2.7%,-4%
O=C(CN1CCCCC1)c1cccc(Br)c1,-3,?,?,-4%
O=C1CC(C(=O)N2CCC3(CC2)OCCO3)CN1CCc1ccccc1 (stereo not drawn),2,-5%,3.1%,1%
CCc1ccccc1N1C(=O)NC(=O)/C(=C\c2cc(C)n(C)c2C)C1=O,-5,-1%,0.3%,-5%
CCC(=O)CC(c1ccccc1)c1c(O)c2ccccc2sc1=O (stereo not drawn),-4,-7%,0.1%,0%
CCC(C)N1CCN(C(=O)COc2ccc3ccccc3c2)CC1 (stereo not drawn),.,1%,1.6%,-7%
CCCCCCn1c(O)c(C=NC2CCCCC2N)c(=O)[nH]c1=O (stereo not drawn),16,15%,-6.2%,-6%
O=c1c2ccccc2nc(-c2ccccc2)n1-c1cccnc1,-1,-7%,-0.1%,8%
CCNC(=O)NC(=O)C(C)OC(=O)c1c(C)nn(Cc2ccccc2Cl)c1Cl (stereo not drawn),-14,-4%,2.2%,-6%
CCc1ccccc1NC(=O)CN1CCN(C(=O)COc2ccccc2C#N)CC1,.,13%,-0.3%,.
O=C1NC(=S)NC(=O)C12C(c1ccccc1)NC(=S)NC2c1ccccc1 (stereo not drawn),-1,-3%,-0.6%,-7%
CC1(C)CSC(Nc2ccc(F)c(Cl)c2)=N1,-6,27%,?,-16%
O=C1C2(c3ccccc3)CN3CN(C2)CC1(c1ccccc1)C3,-1,-4%,6.2%,4%
CN1C[C@H](CO)C[C@@H]2c3cccc4[nH]cc(c34)C[C@H]21,.,0%,3.5%,6%
O=C(NC1(C(F)(F)F)Oc2ccc(Cl)cc2O1)N1CCC2(CC1)OCCO2 (stereo not drawn),0,24%,7.8%,-9%
CC(=O)N(C1=NCCCS1)c1ccccc1Cl,5,29%,0.7%,4%

# New compounds follow.
SMILES,GLA inh pH 4.5,Rango release inh,Rango complex inh,miR-21 reporter
CNCC(C)c1ccccc1 (stereo not drawn),0,12%,0.6%,-7%
COC(=O)C1=C(c2ccc(-c3ccccc3)c(F)c2)C[C@@H]2CC[C@H]1N2C(=O)NCCc1ccccc1,.,-5%,2.0%,.
O=C(c1ccccc1F)c1cn(Cc2ccccc2)c2ccccc12,-2,-1%,-3.5%,-7%
C[C@H]1O[C@@H](O[C@H]2[C@@H](O)C[C@H](O[C@H]3[C@@H](O)C[C@H](O[C@H]4CC[C@@]5(C)[C@H](CC[C@@H]6[C@@H]5CC[C@]5(C)[C@@H](C7=CC(=O)OC7)CC[C@]65O)C4)O[C@@H]3C)O[C@@H]2C)C[C@H](O)[C@@H]1O,-1,12%,-4.7%,?
CSc1ncc(/C=C2/C(=O)NC(=O)N(C3CCCCC3)C2=O)cn1,3,-16%,2.6%,-3%
O=C(Nc1ccc(Cl)cc1)N1CC2CC(C1)c1cccc(=O)n1C2 (stereo not drawn),.,1%,6.1%,-22%
COC(=O)C1=C(c2ccccc2)C[C@@H]2CC[C@H]1N2C(=O)NCCO,.,-8%,0.4%,.
c1ccc2cc(C3N4CCCN34)ccc2c1 (stereo not drawn),0,5%,0.5%,-3%
Cc1cc(C)c2c(ccc3cccc[n+]32)c1,.,0%,0.0%,.
CC(=O)OC1(c2ccccc2)CCN(C)CC1(C)C (stereo not drawn),2,28%,1.2%,-1%
CC1([N+](=O)[O-])COP(=O)(NCc2cccnc2)OC1 (stereo not drawn),.,0%,-0.7%,.
C=CCCC1(CC(C)C)C(=O)NC(=S)NC1=O,.,0%,-0.9%,.
CN(C)C(=O)OCc1n(C)cc[n+]1C,4,-11%,4.5%,0%
O=C(Cn1ncc2c3ccccc3n(Cc3cccc(Cl)c3)c2c1=O)N1CCC2(CC1)OCCO2,7,0%,4.3%,19%
CN(C)[C@@H]1C(=O)C(C(N)=O)=C(O)[C@@]2(O)C(=O)C3=C(O)c4c(O)ccc(Cl)c4[C@@](C)(O)C3C[C@@H]12 (stereo partly drawn),0,?,-0.5%,-2%
COc1ccc(CC(=O)Nc2ccc3c(C(F)(F)F)cc(=O)oc3c2)cc1OC,-7,-14%,-0.1%,-15%
COC(=O)C1=C(c2ccc(OC)c(OC)c2)C[C@@H]2CC[C@H]1N2C(=O)NCCNC(C)=O,.,4%,0.6%,.
COC(=O)c1c(N)n(Cc2ccc(OC)cc2)c2nc3ccccc3nc12,?,?,?,3%
COC(=O)C(O)(c1ccc(NC(=S)NC(=O)c2ccc(Cl)cc2Cl)c(C)c1)C(F)(F)F (stereo not drawn),-3,13%,-0.2%,24%
CC(=O)c1ccc(-c2ccc(Cn3c(C)nc4cc(N)c(C)nc43)cc2)cc1,-22,-6%,-0.9%,-26%
CC1C(c2cccs2)=[N+]([O-])C(C)(C(=O)c2ccc(F)cc2)N1O (stereo not drawn),.,-3%,2.2%,.
NC(=O)Cn1cc(C(=O)c2ccccc2)c2ccccc21,.,1%,2.5%,0%
CN(C)/C=C(\C=[N+](C)C)c1[nH]ncc1[N+](=O)[O-],-6,21%,-1.4%,0%
O=[N+]([O-])c1cc(S(=O)(=O)c2ccc(O)c([N+](=O)[O-])c2)ccc1O,1,14%,4.9%,-2%
CCOC(=O)C1=C(N)OC(C)=C(C(=O)OCCOC)C12C(=O)Nc1ccccc12 (stereo not drawn),-4,0%,-0.9%,0%

# (next part)
SMILES,GLA inh pH 4.5,Rango release inh,Rango complex inh,miR-21 reporter
CCOC(=O)c1cncn1C(C)c1ccccc1 (stereo not drawn),.,-10%,6.5%,-5%
COc1cccc(CNCCc2c[nH]c3ccccc23)c1,.,14%,0.7%,-6%
CC(C)N1CC=C(c2c[nH]c3ccccc23)CC1,-4,1%,-1.4%,19%
O=C(c1ccc(C(F)(F)F)cc1)C1CCCN(Cc2ccc(CO)o2)C1 (stereo not drawn),4,7%,0.5%,0%
Cc1cc(/C=C2\C(=O)NC(=O)N(c3ccccc3F)C2=O)c(C)n1-c1cc(C(=O)O)cc(C(=O)O)c1,.,-22%,?,1%
O=C(Cn1cc(C(=O)c2ccccc2F)c2ccccc21)NCc1ccco1,-4,?,?,1%
c1ccc2c(CCNC3=NCCC3)c[nH]c2c1,10,7%,2.5%,0%
O=c1c2ccccc2[se]n1-c1ccccc1,-2&-29&-10,7%,-0.3%,?
C=CCn1c(O)c(C(C)=Nc2ccc(N(CC)CC)cc2)c(=O)[nH]c1=O,5,-17%,-0.2%,16%
CC[C@@H](CO)NC(=O)[C@@H]1C=C2c3cccc4[nH]cc(c34)C[C@H]2N(C)C1,.,-10%,?,.
O=C(C1CCCN(S(=O)(=O)c2cccc3nsnc23)C1)N1CCC2(CC1)OCCO2 (stereo not drawn),-7,0%,-0.1%,-1%
CC(=O)C1CCC2(O)C3CCC4=CC(=O)CCC4(C)C3CCC12C (stereo not drawn),.,-11%,0.3%,.
CCOP(=O)(OCC)Oc1cc(C)c(N(C)C)c(C)c1,-13,-8%,1.0%,0%
COC(=O)C1=C(c2ccc(F)cc2OCc2ccccc2)C[C@@H]2CC[C@H]1N2C(=O)NCc1cccc(C(F)(F)F)c1,.,-4%,-0.4%,.
CC1CCC(NCC(O)c2ccccc2)CC1 (stereo not drawn),5,10%,-4.0%,-6%
COc1cc(C(C)=O)ccc1OCc1cc(C(=O)N(C)CCC2CCCCO2)no1 (stereo not drawn),.,-6%,0.0%,-59%
CC12CN3CCN(CC(C3)/C1=N/NC(N)=O)C2,-7,-6%,0.0%,-18%
CCOC(=O)[C@]12Cc3ccsc3[C@H]1N(Cc1ccccc1)C(=O)c1ccccc12,.,0%,-7.2%,.
COC(=O)C1=C(c2cc3ccccc3o2)C[C@@H]2CC[C@H]1N2C(=O)N1CCCCC1,.,1%,-0.8%,.
Cc1cc(/C=C2\C(=O)NC(=O)N(Cc3ccccc3)C2=O)c(C)n1-c1ccc(Cl)c(C(=O)O)c1,-3,-28%,?,6%
O=C(CCCn1c(=O)[nH]c2cc(Cl)ccc2c1=O)N1CCC2(CC1)OCCO2,0,5%,0.2%,1%
CC12C=CC(=O)CC1CCC1C2CCC2(C)C(O)C(O)CC12 (stereo not drawn),.,5%,-0.9%,.
Cc1ccc(N2C(=O)NC(=O)/C(=C\c3cccn3C(C)(C)C)C2=O)cc1,5,-21%,?,-1%
O=C(c1cccs1)c1cn(Cc2ccccc2Cl)c2ccccc12,9,1%,0.1%,-6%
Cc1ccc(S(=O)(=O)NC(Cc2cnc[nH]2)C(=O)O)cc1 (stereo not drawn),4,2%,6.5%,-3%

# (further entries)
SMILES,GLA inh pH 4.5,Rango release inh,Rango complex inh,miR-21 reporter
C/C(O)=C(\C#N)C(=O)Nc1cc(Br)ccc1Br,-2,12%,-0.4%,.
CC(C)(C)P(=O)(N1CCOCC1)N1CCOCC1,1,18%,-2.3%,0%
CN1CSC(=S)N(C)C1,12,12%,1.5%,4%
COc1cc(/C=C2\C(=O)NC(=O)N(c3ccccc3)C2=O)cc(OC)c1OC,3,4%,3.0%,-2%
CC12CN3CCN(C1)CC(C)(C3)C2=NO,-3,7%,6.2%,-5%
Nc1ccccc1C(=O)OCc1ccc([N+](=O)[O-])cc1,6,-3%,-1.1%,-42%
CC(=NCCCN1CCCCC1)c1c(O)n(Cc2ccccc2)c(=O)[nH]c1=O,-3,15%,1.4%,-1%
CCCNC(=O)Cn1cnc2sc(C(=O)N3CCC4(CC3)OCCO4)c(C)c2c1=O,.,3%,0.3%,0%
CN1CCN(c2ncnc3nc[nH]c23)CC1,-6,23%,0.2%,0%
Cc1ccc(-c2cc(-c3ccccc3)cc(-c3ccccc3)[n+]2-c2ccccc2)cc1,.,12%,-0.5%,.
CCN(CC)c1ccc(N=Cc2c(O)[nH]c(=O)[nH]c2=O)cc1,.,?,?,-5%

# Filtered by structure: the compounds so far with a thiophene ring, fused or not.
SMILES,GLA inh pH 4.5,Rango release inh,Rango complex inh,miR-21 reporter
CC1C(c2cccs2)=[N+]([O-])C(C)(C(=O)c2ccc(F)cc2)N1O (stereo not drawn),.,-3%,2.2%,.
CCOC(=O)[C@]12Cc3ccsc3[C@H]1N(Cc1ccccc1)C(=O)c1ccccc12,.,0%,-7.2%,.
O=C(c1cccs1)c1cn(Cc2ccccc2Cl)c2ccccc12,9,1%,0.1%,-6%
CCCNC(=O)Cn1cnc2sc(C(=O)N3CCC4(CC3)OCCO4)c(C)c2c1=O,.,3%,0.3%,0%

# 3 neighbouring records already listed:
SMILES,GLA inh pH 4.5,Rango release inh,Rango complex inh,miR-21 reporter
CN1CCN(c2ncnc3nc[nH]c23)CC1,-6,23%,0.2%,0%
Cc1ccc(-c2cc(-c3ccccc3)cc(-c3ccccc3)[n+]2-c2ccccc2)cc1,.,12%,-0.5%,.
CCN(CC)c1ccc(N=Cc2c(O)[nH]c(=O)[nH]c2=O)cc1,.,?,?,-5%

# Bioassay records (PubChem)
